Screens (PubChem BioAssay)
Marburg entry inh: inhibitors of Marburg virus binding or cell entry; Potency, µM (doses to about 37.8 µM), for inactives: top-dose activity change, negative = inhibition, most hits filed as inhibitors; Marburg virus pseudotyped entry inhibition, cell reporter; control for the full effect not named in the record; about a third of the inactives were read at about 46 µM; 1.8% of 300,000 active; AID 540276; active = well fitted inhibition curve with a large enough effect; inconclusive = small, poorly fitted or top-dose-only effect, or effect the other way; inactive = flat fitted curve, though single readings scatter; tested in HEK293 cells; about a fifth of its hits are not listed in these tables; further: luciferase read-out
An asterisk follows results filed as active; ? = inconclusive; & = joins results of further samples; [ ] = remark or other dose. On the % scale 0 is the no-effect control and ±100 the full control effect; potency means the concentration at half of the fitted maximal effect. Only part of the results is shown (hit frequency here may not be typical).

The opening 13 compounds as a preview:
entry	Molecule	Marburg entry inh
1	C#CCCCO/N=C1/C[C@@H](O)[C@@H](O)[C@@H]2[C@H]3C(=O)N(c4ccc(F)cc4F)C(=O)[C@@H]3CC[C@@H]12	-8%[14.2 µM]
2	CCCCC[C@H]1C[C@@H](CC#CCN2CCOCC2)C(=O)O1	10%
3	COC(=O)C1=C(C)N(CC#C[Si](C)(C)C)C(=O)N(C(C)=O)C1c1ccccc1 (configuration not stated)	-5%[14.2 µM]
4	CCc1cc2c(nc1CC)CCN(CCC(C)=NO[C@H](C)c1cn([C@H](CO)Cc3ccccc3)nn1)C2	-16%[14.2 µM]
5	COC(=O)C1=C(C(=O)OC)[C@@H]2N(C)c3ccccc3[C@@]23CCC(=O)N(Cc2ccc4c(c2)OCO4)C3=N1	?
6	Cc1cc2c(c(=O)o1)[C@H]1O[C@](CCCCN3C(=O)c4ccccc4C3=O)(Cc3cc(C#N)ccc31)O2	?
7	O=S1(=O)N[C@H](Cc2ccccc2)COc2cc(NCCO)ccc21	?
8	CC(=O)OC[C@H]1O[C@H](C#Cc2ccc(C)cc2C)C=C[C@@H]1OC(C)=O	-2%[14.2 µM]
9	COC(=O)CC=C[C@@H](C)[C@H](NC(=O)OCC(Cl)(Cl)Cl)c1cccc(OC)c1	-8%[14.2 µM]
10	CC(C)OC(=O)[C@H](C)NC(=O)N1CCc2nc(COc3ccccc3)c3c(c2C1)CO[C@@H](C)C3	-36%[14.2 µM]
11	COC(=O)[C@H]1[C@H](C)[C@@]2(O)c3ccccc3N(C)[C@@]1(C)[C@H]2O	-25%[14.2 µM]
12	CCC1CC2C(=O)C(c3nc(C)cs3)=COC2CC1O (configuration not stated)	0%[46.1 µM]
13	CCN1C(=S)NC(c2ccccc2)C(C(=O)OC)=C1C (configuration not stated)	-2%[14.2 µM]

All compounds of this part, repeating the preview:
entry	Molecule	Marburg entry inh
1	C#CCCCO/N=C1/C[C@@H](O)[C@@H](O)[C@@H]2[C@H]3C(=O)N(c4ccc(F)cc4F)C(=O)[C@@H]3CC[C@@H]12	-8%[14.2 µM]
2	CCCCC[C@H]1C[C@@H](CC#CCN2CCOCC2)C(=O)O1	10%
3	COC(=O)C1=C(C)N(CC#C[Si](C)(C)C)C(=O)N(C(C)=O)C1c1ccccc1 (configuration not stated)	-5%[14.2 µM]
4	CCc1cc2c(nc1CC)CCN(CCC(C)=NO[C@H](C)c1cn([C@H](CO)Cc3ccccc3)nn1)C2	-16%[14.2 µM]
5	COC(=O)C1=C(C(=O)OC)[C@@H]2N(C)c3ccccc3[C@@]23CCC(=O)N(Cc2ccc4c(c2)OCO4)C3=N1	?
6	Cc1cc2c(c(=O)o1)[C@H]1O[C@](CCCCN3C(=O)c4ccccc4C3=O)(Cc3cc(C#N)ccc31)O2	?
7	O=S1(=O)N[C@H](Cc2ccccc2)COc2cc(NCCO)ccc21	?
8	CC(=O)OC[C@H]1O[C@H](C#Cc2ccc(C)cc2C)C=C[C@@H]1OC(C)=O	-2%[14.2 µM]
9	COC(=O)CC=C[C@@H](C)[C@H](NC(=O)OCC(Cl)(Cl)Cl)c1cccc(OC)c1	-8%[14.2 µM]
10	CC(C)OC(=O)[C@H](C)NC(=O)N1CCc2nc(COc3ccccc3)c3c(c2C1)CO[C@@H](C)C3	-36%[14.2 µM]
11	COC(=O)[C@H]1[C@H](C)[C@@]2(O)c3ccccc3N(C)[C@@]1(C)[C@H]2O	-25%[14.2 µM]
12	CCC1CC2C(=O)C(c3nc(C)cs3)=COC2CC1O (configuration not stated)	0%[46.1 µM]
13	CCN1C(=S)NC(c2ccccc2)C(C(=O)OC)=C1C (configuration not stated)	-2%[14.2 µM]
14	COCCN1C(=O)CC[C@@]23C1=NC(C(=O)OC)=C(C(=O)OC)[C@@H]2N(C)c1ccccc13	?
15	CCCCc1nc2c(c3c1C[C@H](C)OC3)CN(S(=O)(=O)c1ccc(NC(C)=O)cc1)CC2	25%&25%&25%[14.2 µM]
16	CC(=O)C1=C(C)N(CCC=Cc2ccccc2)C(=O)NC1c1ccccc1 (configuration not stated)	?
17	CC(CCN1CCc2nc(-c3ccccc3)c(-c3ccccc3)cc2C1)=NOC[C@@H](O)COCc1ccco1	?
18	Nc1nc(SCc2ccc([N+](=O)[O-])cc2)c2ncn([C@@H]3O[C@@H](CO)[C@@H](O)[C@H]3O)c2n1	-5%
19	COC1=C[C@H](C(=O)NCc2ccc(Cl)cc2)C(C)C(c2ccccc2)CC1=O (some centres not stated)	-1%[14.2 µM]
20	COC(=O)N(C=Cc1ccc(OC)cc1)CCc1ccc(OC)c(OC)c1	3%[14.2 µM]
21	CCCCCCCC#Cc1ccccc1C=NS(=O)c1ccc(C)cc1 (configuration not stated)	4%[14.2 µM]
22	C=CCOC(=O)N[C@@H](Cc1ccccc1)C(C(=O)OC)=C(C)NCc1ccccc1	-11%[14.2 µM]
23	CCCCOC(=O)CSC1=C(C#N)[C@H](c2ccc3c(c2)OCO3)CC(=O)N1	7%
24	CCOC(=O)c1sc(NC(=O)CSc2nc3c(cc2C#N)CCC3)c(C#N)c1C	-1%
25	COCCN1C(=S)NC(c2cccc(F)c2)C(C(=O)OC)=C1C (configuration not stated)	21%[14.2 µM]
26	Cc1[nH]c2ccc(F)cc2c(=O)c1SC(F)(F)[C@@H](F)C(F)(F)F	-14%
27	CCN1C(=O)[C@H]2[C@H]3[C@H](O)[C@H](O)C/C(=N/OC[C@@H](O)[C@H]4O[C@H]5OC(C)(C)O[C@H]5[C@@H]4O)[C@@H]3CC[C@@H]2C1=O	?
28	CC(=O)OC[C@H]1O[C@H](C#Cc2ccc(C(C)(C)C)cc2)C=C[C@H]1OC(C)=O	?
29	COC(=O)N[C@@H](c1ccco1)[C@]1(C(=O)OC)CCCC1=O	?
30	COc1ccc(O[C@H]2C=C[C@@H](c3ccccc3)O[C@H]2CON=C2[C@H]3CCn4c(=O)n(-c5ccccc5)c(=O)n4[C@@H]3[C@H](O)[C@@H]3O[C@H]23)cc1	5%[14.2 µM]
31	C=CCN1c2ccccc2[C@]23CCC(=O)N(CCc4ccccn4)C2=NC(C(=O)OC)=C(C(=O)OC)[C@H]13	4%[14.2 µM]
32	C#CCCCO/N=C1\C[C@@H](O)[C@@H](O)[C@@H]2[C@@H]3C(=O)N(c4ccc(F)cc4F)C(=O)[C@@H]3CC[C@H]12	-6%[14.2 µM]
33	O=C(NCCCn1ccnc1)[C@H](Cc1ccccc1)N1C(=O)c2ccccc2C1=O	1%
34	CC(CCN1CCCc2nc(C)c(C)cc21)=NOC[C@@H](C)[C@H](OCc1ccccc1)C(C)C	-24%[14.2 µM]
35	CCCNC(=O)OC[C@@H]1O[C@H](CCO/N=C2\c3cc(OC)ccc3O[C@H](c3cccc(OC)c3)[C@H]2O)C=C[C@@H]1Oc1ccc(OC)cc1	?
36	O[C@H](c1ccc(F)cc1)[C@H](c1ccccc1)N1CCOCC1	9%
37	CCN1C(=NCc2ccc(OC)cc2)NC(c2cccc(F)c2)C(C(=O)OC)=C1C (configuration not stated)	2%[14.2 µM]
38	COc1ccc(CCCC2=NC3C=CC=CC3=N2)cc1 (configuration not stated)	14%[46.1 µM]
39	CCCCCCN1C[C@@H](O)[C@H](n2cc(-c3ccc(F)cc3)nn2)C[C@H]1c1ccc(C)cc1	?
40	CC(C)=CCC/C(C)=C/C=C/C1=CC2(C)CC1(C)C(/C=C(\C)CCC=C(C)C)CC2=O (configuration not stated)	?
41	COC(=O)N[C@H](CC(C)=O)c1ccc(F)cc1	?
42	CCOc1ccc(-c2nnc3sc(-c4c(OC)cccc4OC)nn23)cc1	0%
43	C=CC[C@@H]1C=C[C@@H](Oc2ccc(OC)cc2)[C@@H](COC(=O)c2ccc(Br)cc2)O1	-4%[14.2 µM]
44	CCOC(=O)CN1C(=O)[C@]2(O[C@H](COc3ccccc3)CC3=C2CCC3)c2ccccc21	?
45	O=C(C1=C(O)C(=O)N(CCCN2CCOCC2)[C@H]1c1ccccn1)c1cc2ccccc2o1	3%
46	O=C(C1CCCCC1)N1C[C@@H](O)[C@@H](n2cc(C3CC3)nn2)C[C@@H]1c1ccccc1	?
47	Cn1c(Cl)cnc1[C@H]1CC(=O)c2cc(Cl)ccc2O1	10µM*
48	Cn1c(=O)c2c3c(sc2n2c(SCC(=O)c4ccc(Cl)cc4)nnc12)COC(C)(C)C3	0%
49	CCOC(=O)[C@H](c1ccccc1)N1CCN(c2ccc(OC)cc2)CC1	1%
50	C[C@H]1CC[C@H]2C(=O)N(Cc3ccccc3)C[C@@H](O)CN2[C@H]1c1ccc(Br)cc1	-33%[14.2 µM]
51	Cc1ccc(N2CN=c3s/c(=C/c4cccnc4)c(=O)n3C2)cc1	-20%[46.1 µM]
52	O=C([C@H](c1ccccc1)N1CCOCC1)N1CCOCC1	29%[46.1 µM]
53	NNC(=O)C1=NN=C(C23CC4CC(CC(C4)C2)C3)C1	17%[46.1 µM]
54	CC(CCC(=O)OC[C@H]1O[C@H](C#Cc2ccccc2)C=C[C@H]1Oc1ccc(C)cc1)=NO[C@@H](C)CN1CCCCc2nc(C)c(C)cc21	-16%[14.2 µM]
55	COC(=O)C/C=C/[C@@H](C)[C@@H](/C=N/OC[C@@H](O)[C@H]1O[C@@H]2OC(C)(C)O[C@@H]2[C@H]1O)OC	22%[14.2 µM]
56	CCOC(=O)CCN1C(=O)[C@H]2[C@H]3[C@H](O)[C@H](O)C/C(=N/NC(=O)OCc4ccccc4)[C@H]3CC[C@@H]2C1=O	?
57	CCOC(=O)C=C1CN(Cc2ccc(OC)cc2)S(=O)(=O)c2ccccc21	?
58	C=C(C[C@@]1(C(=O)OC)C=C[C@@H](C)[C@H](c2ccccc2Br)N1C(=O)C(F)(F)F)c1ccccc1	-14%[14.2 µM]
59	Nc1ccc(Cl)cc1/C(=N\O)c1ccccc1	-22%
60	CC1=C(C)CC(c2ccccc2)C(C(=O)c2ccccc2O)C1 (configuration not stated)	?

Next part
entry	Molecule	Marburg entry inh
61	COc1ccc([C@]23Cc4cc(C#N)ccc4[C@H](O2)c2c(cc(C)n(-c4ccccc4)c2=O)O3)cc1	2%[14.2 µM]
62	Cc1c([C@@H](Nc2ccccn2)c2ccccc2)c(=O)n(-c2ccccc2)n1C	22%
63	CCOC(=O)N/N=C1\C[C@@H](O)[C@@H](O)[C@@H]2[C@@H]3C(=O)N(C[C@@H]4CCCO4)C(=O)[C@@H]3CC[C@@H]12	6%[14.2 µM]
64	COc1cc2c(cc1OC)[C@@H]1O[C@](CCCCN3C(=O)c4ccccc4C3=O)(C2)Oc2c1c(=O)oc1ccccc21	3%[14.2 µM]
65	CCCCCC(=O)N1C[C@@H](O)[C@H](n2cc(COC(=O)c3ccccc3)nn2)C[C@H]1c1ccccc1	?
66	CC(=O)OC[C@H]1O[C@H](CCON=C(C)CCN2CCCc3nc(C)c(C)cc32)C=C[C@H]1OC(C)=O	-28%[14.2 µM]
67	Cc1cc(Cl)ccc1OCC(=O)O[C@@H](C)C(=O)N(C)C	4%
68	COc1ccc([C@H]2/C(=C(\O)c3cnn(-c4ccccc4)c3C)C(=O)C(=O)N2CCN(C)C)cc1OC	3%[46.1 µM]
69	CC(C)CON=C1C[C@@H](O)[C@@H](O)[C@@H]2[C@H]3C(=O)N(C[C@@H]4CCCO4)C(=O)[C@@H]3CC[C@H]12	-10%[14.2 µM]
70	COC(=O)NC(/C=C/c1ccco1)[C@@]1(C(=O)OC)CCCC1=O (some centres not stated)	3%[14.2 µM]
71	O=[S+]1([O-])C[C@H](N2CCN(CCO)CC2)[C@H](COCc2ccccc2)N1	?
72	CCC=C1C(=O)[C@]2(C(=O)c3ccccc3)C[C@H]3CCC(CCC)(C2=O)[C@@]13OC	?
73	COCC=CC1=CC2=CC(=O)C(C)(OC(=O)c3cnc4ccccc4n3)C(=O)C2=CN1CCCCO (configuration not stated)	?
74	O[C@@H]1C[C@H](c2ccccc2)N(Cc2cccs2)C[C@@H]1n1cc(C2CC2)nn1	?
75	O=C1[C@H]2[C@H]3[C@H](O)[C@H](O)C/C(=N\OC[C@@H](O)COCc4ccco4)[C@H]3CC[C@H]2C(=O)N1C1CCCCC1	-22%[14.2 µM]
76	CO[C@H](c1ccccc1Br)[C@H](C)C=CCCO	?
77	CCN1C(=O)[C@@H]2[C@H]3[C@H](O)[C@H](O)CC(=NO[C@H](C)c4cn([C@@H]5COC[C@@H]5O)nn4)[C@@H]3CC[C@H]2C1=O	-32%[14.2 µM]
78	CCO[C@H](c1cc(OC)cc([N+](=O)[O-])c1OC)[C@H](C)/C=C\CC(=O)OC	1%[14.2 µM]
79	COC(=O)[C@@H]1[C@@H](c2cccc(C(F)(F)F)c2)NC(=O)N(Cc2ccccc2)[C@@H]1C	-19%[14.2 µM]
80	O=C(N/N=C1\C[C@@H](O)[C@@H](O)[C@@H]2[C@@H]3C(=O)N(C[C@@H]4CCCO4)C(=O)[C@@H]3CC[C@H]12)OCc1ccccc1	?
81	COC(=O)N[C@H](CC(C)=O)c1ccc2c(c1)OCO2	-17%[14.2 µM]
82	COC(=O)C(C(=O)OC)[C@H]1c2ccccc2[C@@H]2C(=C[C@@H](C)[C@H]3C(=O)N(c4ccccc4)C(=O)[C@H]32)N1C(=O)OC	25%[14.2 µM]
83	CCOc1ccc2nc(N[C@@](NC(C)=O)(C(=O)OC)C(F)(F)F)sc2c1	-6%
84	COCC1=C(C(=O)OC)C(c2ccccc2)N(C(C)=O)C(=O)N1 (configuration not stated)	1%[14.2 µM]
85	COc1cccc([C@@H]2NC(=O)CC=C[C@H](C)[C@H](c3cccc(OC)c3)NC(=O)CC=C[C@H]2C)c1	16%[14.2 µM]
86	N#CC1=C(N)OC2=C(C(=O)CCC2)[C@@H]1CCc1ccccc1	11%[46.1 µM]
